VCAM-1 down imaging = suppression of endothelial VCAM-1 upregulation – imaging, high-content imaging, pooled HUVEC, TNFa stimulus (AID 456); one-dose inhibition, % at 5 µM; IC50 in µM for titrated hits; HUVEC TNFa-induced VCAM-1 surface expression, immunofluorescence imaging; numbers were filed only for top-ranked candidate wells; 10,000 compounds, 0.2% hits;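 active = top tenth filtered wells with inhibition above zero that passed visual or statistical confirmation; inactive = the rest, including hits rejected on review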;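 also: 0% = stimulated vehicle wells and 100% = unstimulated cells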
VCAM-1 inhibition = suppression of endothelial VCAM-1 upregulation – cell-based, plate reader, pooled HUVEC, TNFa stimulus (AID 454) | HUVEC TNFa-induced VCAM-1 surface immunofluorescence, plate reader; numbers were filed only for top-ranked candidate wells | inhibition, % at 5 µM | 10,000 compounds, 0.2% hits;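 active = compound among top-ranked inhibitors of TNF-induced VCAM-1 adhesion protein staining, with the hit upheld by image or statistical review; inactive = the rest, including hits rejected on review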;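 also: 0% = TNFa with vehicle and 100% = cells without TNFa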
VCAM-1 up imaging = enhancers of VCAM-1 display on endothelial cells, imaging, high-content imaging, pooled HUVEC, TNFa stimulus (AID 457) | Pooled HUVEC, TNFa-induced VCAM-1 immunofluorescence imaging; hits of this screen are not shown here | calls only | 10,000 compounds, 0.2% hits;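 active = a top-ranked rise in VCAM-1 staining upheld on image or statistical review; inactive = the rest, including candidates rejected on review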;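 also: compounds tested at 5 µM in the well; cells exposed to compound for 24 hours before fixing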
FPR binder = human FPR ligand, with FPRL1 counter-screen | FPR-expressing cells, fluorescent ligand binding, flow cytometry | inhibition, %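 (tested at 6.7 µM)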 | 24,000 compounds, 0.74% hits;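 also: 0% = buffer wells and 100% = receptor blocker peptide wells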
Target sequence (P21462 whole entry, looked up): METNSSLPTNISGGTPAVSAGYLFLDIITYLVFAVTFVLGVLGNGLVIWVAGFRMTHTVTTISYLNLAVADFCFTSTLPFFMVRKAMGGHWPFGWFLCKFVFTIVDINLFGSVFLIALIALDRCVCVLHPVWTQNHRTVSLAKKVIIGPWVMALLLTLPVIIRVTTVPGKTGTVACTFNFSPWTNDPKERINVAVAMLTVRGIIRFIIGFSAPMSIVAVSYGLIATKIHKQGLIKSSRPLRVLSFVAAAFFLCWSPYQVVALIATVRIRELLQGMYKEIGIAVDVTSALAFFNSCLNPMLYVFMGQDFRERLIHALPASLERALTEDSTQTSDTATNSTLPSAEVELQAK
FPRL1 ligand = ligands of human FPRL1, also counter-screen for FPR ligands | P25090 | FPRL1-expressing cells, fluorescent ligand binding inhibition, flow cytometry | inhibition, %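 (tested at 6.7 µM)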 | 24,000 compounds, 0.3% hits;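 also: 0% = buffer alone and 100% = receptor blocker peptide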
Target sequence (P25090 whole entry, looked up): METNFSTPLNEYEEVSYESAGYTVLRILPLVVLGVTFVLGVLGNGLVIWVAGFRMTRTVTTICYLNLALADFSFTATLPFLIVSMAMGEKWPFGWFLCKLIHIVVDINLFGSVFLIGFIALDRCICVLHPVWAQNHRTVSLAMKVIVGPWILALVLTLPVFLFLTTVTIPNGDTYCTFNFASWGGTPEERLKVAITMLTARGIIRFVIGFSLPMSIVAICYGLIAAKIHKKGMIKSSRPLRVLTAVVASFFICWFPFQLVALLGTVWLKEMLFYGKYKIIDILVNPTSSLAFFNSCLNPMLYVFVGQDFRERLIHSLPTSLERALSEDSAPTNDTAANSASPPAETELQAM
* hit, by the source's call; i = inactive; x = not tested or not shown.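 The calls were made as follows, unless noted: active = mean above 30%; inconclusive = self-fluorescent; inactive = the rest.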 An excerpt; rates above refer to the full screens.

SMILES	VCAM-1 down imaging	VCAM-1 inhibition	VCAM-1 up imaging	FPR binder	FPRL1 ligand
CC(=O)NCCn1c(SCC(=O)c2ccccc2)nc2ccccc2c1=O	x	x	x	6	8
Cc1c(C(=O)OCc2ccccc2)[nH]c2c1C(=O)CC(c1ccco1)C2 (stereo unspecified)	i	i	i	6	-3
Cn1c(=O)c2[nH]cnc2n(C)c1=O	i	i	i	-5	-1
COCCCNC(CC(=O)Nc1ccc(N(C)C)cc1)C(=O)O (stereo unspecified)	x	x	x	0	0
O=C(CCS(=O)(=O)c1ccc(Br)cc1)NCc1cccs1	x	x	x	-2	7
O=C(CCn1c(=O)oc2ccccc21)Nc1nccs1	x	x	x	0	3
CCOc1ccc2nc(NC(=O)C(CCSC)NS(=O)(=O)c3cccs3)sc2c1 (stereo unspecified)	x	x	x	7	15
CC(=O)Nc1c2c3c(cccc3n(C)c1=O)C(=O)c1ccccc1-2	x	x	x	-4	11
CC(CN1CCCCC1)OC(=O)c1ccc2c(c1)OCO2 (stereo unspecified)	i	i	i	8	-1
NCC(O)COc1ccc2c(c1)OCO2 (stereo unspecified)	i	i	i	-6	1
CC(C)(C)c1ccc(C(=O)N2CCC(C(=O)NCc3ccncc3)CC2)cc1	i	i	i	-12	-2
COc1ccc(C(C)N2CC34C=CC(O3)C(C(=O)OCC(C)C)C4C2=O)cc1 (stereo unspecified)	i	i	i	2	-1
COc1ccc(CNC(=O)c2ccc(NC(=O)C3CCCO3)cc2)cc1 (stereo unspecified)	x	x	x	-7	-2
Cc1cc(=O)n2nc(N3CCCC(C(=O)N4CCOCC4)C3)sc2n1 (stereo unspecified)	x	x	x	-6	-15
COc1ccc(-c2noc(CCC(=O)NCCCN3CCC(Cc4ccccc4)CC3)n2)cc1	i	i	i	-3	2
COC(=O)c1ccccc1NC(=O)c1cc(C2CC2)on1	x	x	x	-7	-8
O=C(C1CCN(S(=O)(=O)c2cccc3nsnc23)CC1)N1CCCc2ccccc21	x	x	x	2	4
Cc1cc(C(F)F)n2ncc(C(=O)NCc3ccccc3C(F)(F)F)c2n1	x	x	x	1	-4
CCn1ncc(C2=NOC(C(=O)N3CCC(C(N)=O)CC3)C2)c1C (stereo unspecified)	i	i	i	-6	7
COc1cc(OC)c(C2Oc3nc(SC)nnc3-c3ccccc3N2C(C)=O)cc1OC (stereo unspecified)	x	x	x	-8	-11
Cc1ccc(C(=O)OCC(=O)Nc2ccc3c(c2)OCO3)o1	i	i	i	-2	-1
CCOC(=O)N1CCN(C(=O)Cc2ccc(-n3c(=S)[nH]c4ccccc4c3=O)cc2)CC1	x	x	x	-2	-4
COc1cc2nc(SCC(=O)NCCc3ccccc3)n(Cc3ccco3)c(=O)c2cc1OC	x	x	x	-2	-3
CCOC(=O)N1CCN(C(=O)C2CCCN(S(C)(=O)=O)C2)CC1 (stereo unspecified)	x	x	x	0	-1
Cc1cc(C)cc(Nc2cc(C)nc3nc(C)nn23)c1	x	x	x	4	2
CN1C(=O)C(O)(CC(=O)c2ccc(F)cc2)c2cc(Br)ccc21 (stereo unspecified)	i	i	i	3	1
Fc1ccc(NCc2nnc(SCc3nnc(-c4ccccc4)o3)n2CC2CCCO2)cc1 (stereo unspecified)	i	i	i	-3	0
CCN(CC)c1ccc2c(c1)CCCN2	i	i	i	-9	-23
O=C1NC(c2ccccc2)(C(F)(F)F)SC2=CCCCCN12 (stereo unspecified)	i	i	i	-8	-4
Nc1ccc2nc(-c3ccc(Cl)cc3)[nH]c2c1	x	x	x	-3	0
Cc1ccc(OCC(=O)NCCN2CCCC2)cc1	i	i	i	-1	3
Nc1nnnn1/N=C/c1ccccc1C(F)(F)F	x	x	x	-4	0
CCCCC(=O)NCCc1cc2ccc(OC)cc2[nH]c1=O	i	i	i	-1	1
O=c1c2oc3ccccc3c2ncn1Cc1ccccc1Cl	x	x	x	4	0
CCCNC(=O)c1ccccc1C(=O)NCCC	i	i	i	-1	3
CCOC(=O)c1cnc2c(C#N)c(C)nn2c1C	x	x	x	0	-1
CC1=C(C(=O)OC2CCCCC2)C(c2ccc(C)o2)C2=C(CC(C)(C)CC2=O)N1 (stereo unspecified)	i	i	i	3	-25
CCc1cccc(NC(=O)CN(C)S(=O)(=O)c2cccc3nsnc23)c1	i	i	i	-1	1
O=C(Nc1ccc2c(c1)OCCO2)C1CCN(C(=O)c2ccc(F)cc2)CC1	i	i	i	8	-2
CC(C)CC(=O)CN1C(=O)C2(OCCO2)c2ccccc21	i	i	i	3	-2
C/C(NC1CCCC1)=C(/C#N)C(N)=O	i	i	i	-1	8
CC1=C(n2nnc3ccccc32)C(c2ccccc2)C(C#N)=C(N)O1 (stereo unspecified)	i	i	i	0	-3
CCCCCCn1c(CN2CCN(Cc3ccccc3)CC2)nc2c1c(=O)n(C)c(=O)n2C	i	i	i	-4	-1
C=CCn1c2ccccc2c2nnc(SC(CC)C(=O)Nc3nc(C)c(C(=O)OCC)s3)nc21 (stereo unspecified)	x	x	x	28	11
Cc1cccc(NC(=O)c2cc(S(=O)(=O)NCc3ccco3)ccc2F)c1C	x	x	x	6	4
Cc1noc(C(=O)NCc2ccco2)c1Cl	x	x	x	-2	-7
COC(=O)[C@H](C)NC(=O)NCc1ccc(F)cc1	i	i	i	-5	-7
COc1ccc(CC(=O)Nc2c3c(nn2-c2cccc(Cl)c2)CS(=O)(=O)C3)cc1	i	i	i	11	1
Cc1c(C(=O)NCc2ccccn2)sc2nc(-c3ccc(F)cc3)cn12	i	i	i	-4	-10
COCCn1c(NCc2ccc(C)cc2)nc2c1c(=O)[nH]c(=O)n2C	i	i	i	-19	-13
CC1(C)OC(=O)N(c2cccnc2)C1(C)O (stereo unspecified)	i	i	i	0	1
Cc1cc(NC(=O)CC(C)(C)C)nc2c1c(=O)oc1ccccc12	x	x	x	7	-10
O=C(O)C1CCC(=O)N1Cc1ccccc1Cl (stereo unspecified)	x	x	x	4	-1
Cc1cc(C(=O)COC(=O)C2COc3ccccc3O2)c(C)n1CC1CCCO1 (stereo unspecified)	i	i	i	-4	-4
CC(C)CCNC(=O)NC(=O)COc1ccccc1C#N	i	i	i	-4	1
CS(=O)(=O)N1CCCC(C(=O)N2CCc3ccccc3C2)C1 (stereo unspecified)	x	x	x	0	-4
COc1ccc(Br)cc1CNC(=O)CCN1C(=O)COc2ccccc21	x	x	x	9	3
COc1cc(C2/C(=C(\O)c3ccc4c(c3)CC(C)O4)C(=O)C(=O)N2CCCn2ccnc2)ccc1O (stereo unspecified)	x	x	x	44*	33*
COc1ccccc1Nc1cc(C(=O)NCCCN2CCOCC2)c2ccccc2n1	x	x	x	0	1
CCC(C)NC(=O)C(Cc1ccccc1)NS(=O)(=O)c1cccc2nsnc12 (stereo unspecified)	x	x	x	-1	4

Reprinted from the part before: 3 compounds; new compounds follow.
SMILES	VCAM-1 down imaging	VCAM-1 inhibition	VCAM-1 up imaging	FPR binder	FPRL1 ligand
COc1cc(C2/C(=C(\O)c3ccc4c(c3)CC(C)O4)C(=O)C(=O)N2CCCn2ccnc2)ccc1O (stereo unspecified)	x	x	x	44*	33*
COc1ccccc1Nc1cc(C(=O)NCCCN2CCOCC2)c2ccccc2n1	x	x	x	0	1
CCC(C)NC(=O)C(Cc1ccccc1)NS(=O)(=O)c1cccc2nsnc12 (stereo unspecified)	x	x	x	-1	4
Cc1onc(-c2ccccc2)c1C(=O)NCc1cccnc1	i	i	i	8	-1
CC1=C(C(=O)N2CCOCC2)C(c2ccsc2)C2=C(CCCC2=O)N1 (stereo unspecified)	i	i	i	5	1
CN(C(=O)c1ccc(S(=O)(=O)NC2CCCC2)cc1)C1CCCCC1	i	i	i	-3	6
COc1ccccc1OCCCn1c(=O)oc2ccccc21	i	i	i	8	16
COc1ccccc1N1CCN(C(=O)c2c(-c3c(Cl)cccc3Cl)noc2C)CC1	i	i	i	7	4
COc1ccc2[nH]c3c(=O)n(CCCCC(=O)NCCN4CCCC4)c(=S)[nH]c3c2c1	x	x	x	0	1
Cc1nc(N2CCN(C)CC2)c2c(C)c(C(=O)Nc3ccc(F)cc3)sc2n1	x	x	x	-5	-11
CC1=C(C(=O)OC(C)C)C(c2cccnc2)n2ncnc2N1 (stereo unspecified)	x	x	x	3	2
CC(NC(=O)C1CC1)C(c1cccs1)N1CCN(c2ccccc2)CC1 (stereo unspecified)	i	i	i	-4	-4
Cn1c(C(=O)N2CCN(c3ncccn3)CC2)cc2c(=O)n(C)c3ccccc3c21	x	x	x	1	-7
Cc1ccc(-c2c3c(=O)n(C)c(=O)n(C)c3c3c(C)cc(C)nn23)cc1	x	x	x	10	2
CCn1c(=O)c(=O)[nH]c2cc(C(=O)N3CCN(c4ccccc4F)CC3)ccc21	i	i	i	1	2
O=C(CSc1nnc(CNC(=O)c2ccccc2F)o1)NCC1CCCO1 (stereo unspecified)	x	x	x	-4	-3
O=C(Oc1ccc(OC(=O)c2ccncc2)cc1)c1ccncc1	x	x	x	0	1
N#CCSc1nc2c(sc(=S)n2Cc2ccco2)c(=O)n1-c1ccc(F)cc1	x	x	x	-2	-4
CCOC(=O)c1nnn(CC(=O)Nc2cccc(F)c2)c1C(=O)OCC	i	i	i	3	2
O=C(Nc1cnn(Cc2ccc(Cl)cc2Cl)c1)c1noc2c1CCCC2	i	i	i	-2	-1
COc1ccc(C(=O)Cn2c(=O)c(CCC(=O)O)nn3c4ccccc4nc23)cc1OC	x	x	x	9	9
Cc1nnc(SCC(=O)Nc2ccc(Br)cn2)[nH]c1=O	i	i	i	4	2
COc1ccc(S(=O)(=O)Nc2cc(C(=O)NC3CCCCCC3)ccc2N2CCOCC2)cc1	x	x	x	1	-1

Structural class: the compounds so far with a tert-butyl group
SMILES	VCAM-1 down imaging	VCAM-1 inhibition	VCAM-1 up imaging	FPR binder	FPRL1 ligand
CC(C)(C)c1ccc(C(=O)N2CCC(C(=O)NCc3ccncc3)CC2)cc1	i	i	i	-12	-2
Cc1cc(NC(=O)CC(C)(C)C)nc2c1c(=O)oc1ccccc12	x	x	x	7	-10

New compounds follow.
SMILES	VCAM-1 down imaging	VCAM-1 inhibition	VCAM-1 up imaging	FPR binder	FPRL1 ligand
Cc1ccc(C)c(N2CCN(S(=O)(=O)c3ccc4c(c3)oc(=O)n4C)CC2)c1	x	x	x	2	0
Cc1cccc(NC(=O)CSc2nnc(-c3ccccc3C)o2)c1	i	i	i	-7	-3
CCOc1cc(C2Nc3ccccc3C(=O)N2c2ccccc2OC)ccc1O (stereo unspecified)	i	i	i	18	-2
CCC(=O)N1c2ccccc2NC2=C(C(=O)CCC2)C1c1ccc(N(C)C)cc1 (stereo unspecified)	x	x	x	5	0
COCCNC(=O)c1nn(-c2cc(OC)cc(OC)c2)c(=O)c2ccccc12	x	x	x	0	-6
Cc1cccc(Cn2c(SCCN3CCCCC3)nc3c2c(=O)[nH]c(=O)n3C)c1	i	i	i	-8	-3
CCc1ccc(-c2nc(CSCC(=O)NCCCN3CCCC3=O)c(C)o2)cc1	x	x	x	2	2
CC(C)n1c(=NC(=O)c2ccco2)c(C#N)cc2c(=O)n3ccccc3cc21	79%*	79*	i	-4	6
CCCNC(=O)C1CN(S(=O)(=O)c2ccccc2)CCN1S(=O)(=O)c1ccccc1 (stereo unspecified)	i	i	i	0	-7
CS(=O)(=O)c1ncc(Cl)c(C(=O)Nc2ccc(N3CCOCC3)cc2)n1	6.5µM*	98*	i	0	0
COCCCNC(=O)c1ccc(Cn2c(=O)[nH]c3ccccc3c2=O)cc1	x	x	x	-3	-2
CCOc1nc(NCCC2=CCCCC2)nc(N2CCOCC2)n1	i	i	i	6	-2
CCN(CC)CCCNC(=O)c1cc2c(-c3ccc(Cl)cc3)nn(C)c2s1	x	x	x	-1	-4
CCOC(=O)CSc1nnc(-c2ccc(S(=O)(=O)N3CCOCC3)cc2)n1-c1ccccc1	i	i	i	-8	0
CN(CP(=O)(O)CN(C)S(C)(=O)=O)S(C)(=O)=O	x	x	x	-4	-2
O=C(NCCCn1ccnc1)c1cc(-c2cccs2)on1	x	x	x	1	0
CCOC(=O)c1cc(C)[nH]c(=S)c1C#N	x	x	x	-5	-5
Clc1ccc(C2CC(c3ccccc3)Nc3ncnn32)cc1 (stereo unspecified)	x	x	x	0	-8

In the list so far, 3 contain a COOH group.
SMILES	VCAM-1 down imaging	VCAM-1 inhibition	VCAM-1 up imaging	FPR binder	FPRL1 ligand
COCCCNC(CC(=O)Nc1ccc(N(C)C)cc1)C(=O)O (stereo unspecified)	x	x	x	0	0
O=C(O)C1CCC(=O)N1Cc1ccccc1Cl (stereo unspecified)	x	x	x	4	-1
COc1ccc(C(=O)Cn2c(=O)c(CCC(=O)O)nn3c4ccccc4nc23)cc1OC	x	x	x	9	9
